# Env fusion inh: inhibitors of HIV-1 Env-driven cell-cell fusion, primary screen, HeLa-JRFL effector, CEM21 target cells, luciferase. AID 651610, 2012. inhibition, % at 12.3 µM. hit rate 1.1% among 360,000;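 active = mean replicate inhibition score of at least 50 and every replicate individually at or above 50; inconclusive = only one of the two criteria met; inactive = mean below 50 and not all replicates reaching 50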;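 note: 0% = plate neutral controls and 100% = maraviroc near 300 nM; one replicate is shown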
# MT1-MMP act inh: blockers of MT1-MMP proenzyme processing, primary screen, HT1080 RFP-PRO-GFP cells, GFP/RFP fluorescence; Matrix metalloproteinase-14 (Homo sapiens), P50281; GFP/RFP ratio fluorescence, overnight; percent of plate control window, DMSO zero; GFP/RFP ratio change, % at 20 µM; AID 651647, 2012; hit rate 0.061% among 360,000;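 active = GFP/RFP ratio change of at least 30% with cell ATP level not reduced by more than half and red fluorescence within 50% of control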; note: strong numbers were not always called active
#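 Test system: HT1080 RFP-PRO-GFP cells; Benchmarks: DMSO and RFP-L50D-GFP cell wells; Timing: cells overnight before dosing, compound overnight, 37 °C, 5% CO2; Compound: one 20 µM compound dose with 1% DMSO; Read-out: GFP/RFP fluorescence ratio.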
# Rce1 inh: yeast Rce1p protease inhibitors, primary screen, biochemical, fluorescence, cell-free homogeneous; yeast membranes, quenched prenylated peptide cleavage fluorescence; calls only; hit rate 0.27% among 290,000; AID 2563, 2010;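 active = fall in fluorescence gain of 50% or more versus controls, with final raw signal at or below 3038400; inconclusive = same 50% fall but final raw signal above 3038400; inactive = fall in fluorescence gain under 50%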;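 note: plate controls were neutral control wells for no effect and wells lacking membranes for full effect; tested at 10 µM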
# Target sequence (Q03530 whole entry, looked up): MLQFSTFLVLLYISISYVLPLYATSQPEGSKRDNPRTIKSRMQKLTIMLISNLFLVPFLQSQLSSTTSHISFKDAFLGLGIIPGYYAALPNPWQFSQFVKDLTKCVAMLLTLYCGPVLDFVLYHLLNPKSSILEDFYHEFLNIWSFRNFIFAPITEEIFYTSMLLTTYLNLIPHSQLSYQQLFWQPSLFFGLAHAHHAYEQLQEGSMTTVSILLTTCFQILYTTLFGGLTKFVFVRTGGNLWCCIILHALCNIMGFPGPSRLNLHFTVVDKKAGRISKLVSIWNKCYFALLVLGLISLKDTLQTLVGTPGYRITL
# CSC inhib: cancer stem cell viability inhibitors, primary screen, luminescence; inhibition, % at 7.5 µM; hit rate 1.1% among 300,000; cancer stem cell-like cells viability; AID 2717, 2010;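 active = mean at 75% or more and at least half the replicates too; inconclusive = mean and replicates disagree; tested in HMLE shEcad cells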;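 note: 0% = median of negative and 100% = median of positive control wells; the first replicate is given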
# eIF4H FP inh: human eIF4H binding inhibitors, primary screen, translation initiation inhibitor project, biochemical, uHTS, fluorescence polarization; eIF4H fluorescence polarization binding assay; inhibition, % at 35 µM; hit rate 0.94% among 290,000; AID 2012, 2009;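 active = 50% or more with normal probe brightness, or confirmed in later tests; inconclusive = above 50% with abnormal brightness, or retests that disagree; inactive = below 50% or failed in later tests; about a fifth of its hits are not listed in these tables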;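 note: calls also rest on retests at 20 µM and on dose response follow-up; 0% = protein and probe with vehicle and 100% = probe without protein; strong numbers were not always called active; many hits fall short of the cut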
# Yeast UUG start: modulators of yeast start codon fidelity, primary screen, whole organism, S. cerevisiae, single point, plate reader; activity score, % at 18.7 µM; hit rate 0.13% among 350,000; AID 602363, 2012; S. cerevisiae UUG-firefly luciferase reporter, luminescence/redox ratio;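 active = replicate mean at a twofold rise or more, about +100% in these data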;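 note: firefly luciferase made from a UUG start codon reports start codon fidelity; reporter light over untreated wells divided by growth signal over untreated wells; some hits fall short of that in this replicate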
# PABP polyA inh: PABP poly(A) RNA binding inhibitors, primary screen, biochemical, fluorescence polarization, uHTS | Polyadenylate-binding protein 1 (Homo sapiens), P11940 | inhibition, % at 35 µM | hit rate 1% among 290,000 | AID 2014, 2009;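 active = 50% or more with normal probe brightness, or confirmed in later tests; inconclusive = above 50% with abnormal brightness, or retests that disagree; inactive = below 50% or failed in later tests; about a fifth of its hits are not listed in these tables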;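 note: calls also rest on retests at 20 µM and on dose response follow-up; controls were probe without protein and protein plus probe with vehicle; some compounds called inactive have numbers as strong as hits; many hits fall short of the cut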
# Target sequence (P11940 whole entry, looked up): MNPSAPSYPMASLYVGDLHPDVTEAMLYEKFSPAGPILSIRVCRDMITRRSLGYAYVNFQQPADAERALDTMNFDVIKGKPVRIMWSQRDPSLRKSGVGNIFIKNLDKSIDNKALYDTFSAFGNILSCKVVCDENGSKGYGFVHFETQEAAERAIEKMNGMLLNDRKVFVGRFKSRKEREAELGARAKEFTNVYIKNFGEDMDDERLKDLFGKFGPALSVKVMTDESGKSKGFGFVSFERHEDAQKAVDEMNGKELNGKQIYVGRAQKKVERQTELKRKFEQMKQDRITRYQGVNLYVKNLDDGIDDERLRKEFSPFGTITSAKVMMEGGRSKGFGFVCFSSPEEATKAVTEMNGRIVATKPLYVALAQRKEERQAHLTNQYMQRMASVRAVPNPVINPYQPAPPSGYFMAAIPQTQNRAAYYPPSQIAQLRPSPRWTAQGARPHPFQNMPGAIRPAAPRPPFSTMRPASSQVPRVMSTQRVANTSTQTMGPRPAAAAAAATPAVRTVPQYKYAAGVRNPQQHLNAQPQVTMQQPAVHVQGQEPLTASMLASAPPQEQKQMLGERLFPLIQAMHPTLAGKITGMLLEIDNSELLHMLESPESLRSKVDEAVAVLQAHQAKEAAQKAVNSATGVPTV
# MT1-MMP act inh RFP: further read-out of MT1-MMP act inh, marked with its call; RFP signal change, %; measured here: RFP expression control read;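 0 = vehicle wells; hits needed this value within 50% of zero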
# Active calls of the source: *; i = inactive; ? = inconclusive; · = no result given; & = joins results of further samples.
# Each structure is followed by: MT1-MMP act inh	Yeast UUG start	Rce1 inh	CSC inhib	PABP polyA inh	eIF4H FP inh	MT1-MMP act inh RFP	Env fusion inh
> N#Cc1ccsc1NC(=O)COC(=O)C1=NNC(=O)CC1
  -5	-6	·	·	·	·	4	10
> O=C(c1cc2nc(-c3ccco3)cc(C(F)(F)F)n2n1)N1CCN(c2ccccc2)CC1
  -1	-8	i	14	16	14	0	-7
> Cc1cc(C)cc(N2C(=O)C3C4C=CC(C4)C3C2=O)c1 (stereo unspecified)
  4	-15	i	-1	-2	1	3	·
> CCSc1ccccc1C(=O)Nc1ccc([N+](=O)[O-])cc1OC
  2	·	i	14	1	-5	0	4
> O=C(Nc1ccn(Cc2ccccc2F)n1)c1ccc(COc2ccc(Cl)cc2Cl)o1
  -26	-2	i	80*	-9	-16	-28	·
> Cc1ccc(S(=O)(=O)N2CCC(C(=O)Nc3nnc(-c4ccco4)s3)CC2)cc1
  3	-19	i	10	-12	17	-2	·
> COc1ccccc1CN(C)C(C)C(=O)Nc1cccc(C(C)=O)c1 (stereo unspecified)
  -1	-12	i	-6	-3	10	-1	-2
> CCOC(=O)N1CCN(S(=O)(=O)c2ccc(-n3cnnn3)cc2)CC1
  0	-19	i	-1	·	·	0	-3
> CCOc1cc2c3c(c1)C(C)=CC(C)(C)N3C(=O)C2=O
  0	1	i	17	1	-5	5	-18
> CCCCNC1=CC(=O)C(NCCCC)=CC1=O
  5	-6	·	·	·	·	4	2
> COc1cccc(/C=C2/SC(=S)N(CC(=O)NC3C=CS(=O)(=O)C3)C2=O)c1 (stereo unspecified)
  2	-6	i	20	8	-5	3	4
> CCN1CCN(c2nc3c(c(=O)[nH]c(=O)n3C)n2Cc2ccccc2F)CC1
  -1	-7	i	3	-7	-9	-1	1
> CCCC(=O)N1CCC1(C)C(=O)Nc1ccc(OC)c(OC)c1 (stereo unspecified)
  -2	-1	·	·	·	·	0	6
> O=C(c1ccc(NS(=O)(=O)c2ccc3[nH]c(=O)[nH]c3c2)cc1)N1CCCC(C(F)(F)F)C1 (stereo unspecified)
  -3	·	i	-1	·	·	1	8
> Cc1cc(C(=O)CSc2nc3ccccc3c(=O)[nH]2)c(C)n1C
  -2	-3	i	20	39	28	7	·
> Cc1ccc(NC(=S)N2CCC(c3nc4ccccc4s3)CC2)cc1
  1	-22	·	-6	0	2	-1	·
> O=C(c1ccco1)N1CCN(C(c2ccccc2F)c2nnnn2Cc2cccs2)CC1 (stereo unspecified)
  -11	33	i	9	12	-11	0	-162
> Cc1ccc(Nc2nnc(C3C(=O)N(C)C4(C)CC3c3cc(Br)ccc3O4)s2)cc1 (stereo unspecified)
  -8	·	i	-8	5	-5	-7	·
> CCNC(=O)CCCOc1ccc(Cl)cc1Cl
  -2	4	i	-3	-2	1	0	-23
> Cc1[nH]c2ccccc2c1C(=O)CN1CC(C)CC(C)C1 (stereo unspecified)
  -3	-12	i	11	-5	-4	-3	2
> Cc1cccc(C(=O)Nc2ccc(C(=O)/C=C/c3cccnc3)cc2)c1
  22	-1	i	52	7	2	8	-32
> CN(C)/C=C(\C(=O)c1ccccc1)c1nnnn1-c1ccccc1
  2	-2	i	-9	-1	0	3	-2
> CC(=O)NC(C)c1nc2ccccc2n1CC(=O)N1C(C)CCCC1C (stereo unspecified)
  -2	·	i	·	-7	-4	2	3
> COc1cc(-c2cccc([C@H]3[C@@H]4C=CC[C@@H](C)[C@@H]4C(=O)N3Cc3ccccc3)c2)cc(OC)c1OC
  -18	2	·	·	·	·	-20	47*
> O=C(c1ccc2c3c(cccc13)C(=O)N(O)C2=O)N1CCCCC1
  5	·	i	16	6	-18	5	·
> CC1=Cc2ccccc2C(C#N)N1C(=O)c1ccccc1 (stereo unspecified)
  -5	3	i	34	17	-5	0	-1
> Cc1cc(C)nc(SCc2c(F)cccc2Cl)n1
  -2	-3	i	7	7	-3	0	0
> CC1=C(C(=O)N(C)C)CC(CC(=O)NCCCCc2ccccc2)C(=O)N1Cc1ccc(F)cc1 (stereo unspecified)
  2	21	·	·	·	·	3	9
> O=c1c2ccccc2nc(SCc2cccc(F)c2)n1-c1cccc(S(=O)(=O)N2CCCC2)c1
  -4	-7	i	-1	-3	-1	-9	-67
> CCC(C)(C(=O)NC1CCCC1)N(C(=O)c1cnccn1)c1c(C)n(C)n(-c2ccccc2)c1=O (stereo unspecified)
  6	-5	i	·	-7	0	1	·
> COc1ccc(OCC(O)CNC(=O)Nc2cccc3ccccc23)cc1 (stereo unspecified)
  3	-8	i	-19	7	-10	1	-1
> COc1cc(C(=O)NCc2ccc(C)cc2)ccc1OCc1c(C)noc1C
  3	·	i	·	3	2	-1	·
> Cc1ccc(-c2csc(NC(=O)c3cccc([N+](=O)[O-])c3)n2)cc1
  -2	-9	i	·	-7	-3	-4	-80
> CCn1c(SCC(=O)Nc2cccc(NC(C)=O)c2)nnc1C(C)C
  0	-4	i	-11	8	1	-5	-12
> C/C(=N\NC(=O)c1ccccc1C)c1cccnc1
  2	-13	i	-3	7	2	5	11
> COC(=O)c1ccc(CNC(=O)C2CCC(=O)N(C3CCCCCC3)C2)cc1 (stereo unspecified)
  1	-8	i	-6	·	·	-2	-8
> COc1cccc(-c2cnc3c(NC(C)=O)cc(-c4cccc(C(=O)NCCN(C)C)c4)cn23)c1
  4	-11	·	·	·	·	2	-12
> C=CCNc1nc(N)c([N+](=O)[O-])c(N2CCCCCC2)n1
  -5	-7	i	-13	22	4	-10	10
> Cc1ccc(C(=O)c2c[nH]c(C(=O)NCc3cccnc3)c2)cc1
  -4	-19	i	-1	6	-1	-9	13
> Cc1cc(C(F)(F)F)n2[nH]c(=O)c(N=Nc3ccccc3)c2n1
  14	·	i	12	9	4	2	-6
> C/C(=N\NC(=O)c1cccc(N2CCCC2=O)c1)c1ccc(N)cc1
  1	·	i	-5	-6	8	4	-2
> O=C(NCC(c1ccco1)N1CCCC1)c1sc2ccccc2c1Cl (stereo unspecified)
  1	1	i	55	84*	85*	0	-5
> COC(=O)c1c(C)oc(C)c(C(=O)OC)c1=O
  0	-19	i	-10	-5	-3	2	·
> CC1CCN(C(=O)c2cc(Cl)nc3ccccc23)CC1
  0	·	i	·	5	-3	3	-41
> C[C@H](CO)N1C[C@H](C)[C@@H](CN(C)C(=O)Nc2ccccc2)Oc2ccc(NC(=O)CCC(F)(F)F)cc2C1=O
  2	-5&5	·	-2	·	·	4	0
> CNC(=S)N/N=C/c1c(C)nn(-c2ccc(F)cc2)c1Cl
  5	·	i	4	0	3	-3	0
> CCCCC(=O)Nc1ccc(NC(=O)c2ccc([N+](=O)[O-])cc2)cc1OC
  6	·	i	16	10	-7	9	-6
> CC(C)(C)/C(Cn1cncn1)=N\OC(=O)Nc1ccc(Cl)cc1
  1	·	·	12	13	-4	1	-8
> C=CCc1cccc(CNn2cnnc2)c1O
  1	-35	i	-6	4	6	-2	3
> CCCCn1c(=O)[nH]c(=O)c2c1nc(-c1ccc(OCCC)c(OCC)c1)n2CCOC
  0	·	i	-8	5	-7	-1	-21
> O=[N+]([O-])c1cccc(-c2nnc3c4ccccc4c4ccccc4n23)c1
  5	2	i	·	0	1	-4	-90
> CC(=O)Oc1ccc(/C=N/NC(=S)Nc2ccccc2)cc1
  8	-30	i	25	8	-4	-1	-98
> CC1CC(N(C(=O)C2CC2)c2ccccc2)c2ccccc2N1C(=O)C1CC1 (stereo unspecified)
  0	1	i	-9	-3	-3	3	-92
> C/C(=N\Nc1ccc2nncn2n1)c1cccs1
  3	-12	i	-8	6	0	3	-3
> CCCc1nnc(NC(=O)CC(=O)OCC)s1
  2	-12	i	-18	-6	-3	4	·
> COc1ccc(N=C2NC(=O)/C(=C\C=C\c3ccco3)S2)cc1
  0	-4	i	·	?	?	9	-11
> O=C(CSc1ccccn1)Nc1ccc2c(c1)C(=O)c1ccccc1C2=O
  -1	-8	i	24	-8	13	-1	-111
> Cc1cc2oc(=O)c3c(c2cc1OC(=O)c1ccco1)CCCC3
  -1	-12	i	4	9	-10	3	·
> O=C(NCc1ccc(C(F)(F)F)cc1)C1CC(c2ccccc2[N+](=O)[O-])=NO1 (stereo unspecified)
  3	9	i	-2	6	-3	1	20
> Cc1c(C)n(Cc2ccc(F)cc2)c2ccc(C(=O)N3CCN(c4ccccn4)CC3)cc12
  22	3	i	19	-7	-2	16	-13

# Next records follow.
# Each structure is followed by: MT1-MMP act inh	Yeast UUG start	Rce1 inh	CSC inhib	PABP polyA inh	eIF4H FP inh	MT1-MMP act inh RFP	Env fusion inh
> CCOc1ccc2nc(SCC(=O)N(C)C)[nH]c2c1
  4	-20	i	4	-5	-3	9	-122
> CCN(CC(=O)Nc1ccc(NC(C)=O)cc1)C(=O)c1ccc2c(c1)OCO2
  2	-7	·	-6	·	·	1	1
> CCC(C)N(C(=O)COc1ccccc1C#N)C1CCS(=O)(=O)C1 (stereo unspecified)
  1	-1	i	-7	·	·	5	-13
> COc1ccc(CCNCC(O)COc2cccc(C(C)=O)c2)cc1OC (stereo unspecified)
  2	-12	i	·	11	11	2	-1
> Cc1csc2nnc(N)n12
  0	-8	i	-2	3	9	-5	-20
> Cc1ccc(C(=O)NCc2ccc3c(c2)OCO3)c(Cl)c1
  -6	8	·	·	·	·	3	-14
> Cc1cccc(NC(=O)COc2ccccc2)c1
  -1	-21	·	12	-1	6	1	·
> CCCCC(=O)NC(=S)Nc1cc([N+](=O)[O-])ccc1OC
  -3	-21	i	·	-4	-3	-7	20
> CC(C)(C)Oc1ncc(Br)c(OC(C)(C)C)n1
  -4	-27	i	-4	-6	-5	3	·
> O=S(=O)(Nc1ccncc1Cl)c1ccccc1
  2	·	i	-5	-2	3	3	·
> COCCNC(=O)/C(=C/c1ccccc1Cl)c1ccccc1
  -5	·	i	-12	5	-1	-6	20
> COc1ccc(-c2cc(C(F)(F)F)nc(N3CCOCC3)n2)cc1
  -1	-21	i	6	-6	3	4	26
> C[C@@H]1O[C@@H](O[C@@H]2C(=O)c3c(O)cc(O)cc3O[C@H]2c2ccc(O)c(O)c2)[C@H](O)[C@H](O)[C@H]1O
  2	-20	·	6	·	·	3	-13
> COc1ccc2nc(N=Nc3ccc(O)c4ccccc34)sc2c1
  25	·	i	92*	2	9	-3	6
> COc1cc(NC(=O)CSC(=S)N2CCCC2)c(OC)cc1Cl
  -7	-2	i	3	·	·	-1	-8
> CC(=O)NCCn1c(SCC(=O)OCc2ccccc2)nc2ccccc2c1=O
  0	4	i	-11	17	1	3	-138
> COc1ccc(-c2cc(NCc3ccccn3)n3ncnc3n2)cc1
  -1	-9	i	-13	-2	0	-1	-4
> CC(C)Cc1nc2oc3c(N4CCN(C)CC4)ncnc3c2c2c1CCCC2
  ·	·	i	·	-7	0	·	·
> O=C(COC(=O)CNC(=O)c1ccccc1)NCCNC(=O)COC(=O)CNC(=O)c1ccccc1
  2	-4	·	·	·	·	-3	-16

# Screening data from PubChem.
